Autofluor counter: flagged as autofluorescent in microsphere protease counterscreen. compound autofluorescence counterscreen, microsphere flow cytometry; active compounds read high. fluorescence intensity (no concentration beside the values). 3.1% of 360,000 active;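 active means at least 3 SD above the mean of all compounds, about 16000 in these data; inconclusive means too few beads counted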;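 further: 100 nL of 1 mM stock went into each well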
Sa ugtP lethal: compounds lethal to S. aureus RN4220 ugtP deletion mutant; OD600 growth, 16 h; some inactives read as strong as hits; growth inhibition, % (concentration not given with the values); 0.54% of 330,000 active;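 active means z-score under -3 and OD600 up to 0.15 on both plates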;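 further: plate controls were untreated wells for no effect and antibiotic for full effect; wells of about 80 µL received 100 nL stock; the first replicate is given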
Mtb hypoxia inh: inhibitors of hypoxia-regulated fluorescent reporter in Mycobacterium tuberculosis. M. tuberculosis hypoxia-regulated fluorescent reporter, fluorescence. fluorescence inhibition, % (test concentration not listed). 0.1% of 300,000 active;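 active means 35 to 45% if threefold the growth effect, above 45% if 1.5-fold the growth effect; inactive means the rest, general growth blockers included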;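 further: wells of about 50 µL received 100 nL stock; 0% = vehicle wells and 100% = reference inhibitor wells; whole bacteria with a GFP reporter of the hypoxia response; strong numbers were not always called active; many hits fall short of the cut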
PrP UTR inh: suppresses PrP 5' UTR mRNA reporter expression | cell-based PrP 5' UTR mRNA reporter, plate reader | inhibition, % (concentration not given with the values) | 0.35% of 340,000 active;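 active means every replicate at 50% or more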;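 further: 0 = median of the neutral control wells; tested in H4 reporter cells; numbers are from one replicate; inactives centre near -14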
BJeLR viability: kills HRASV12-expressing BJeLR cells | BJeLR (HRASV12) viability, CellTiter-Glo ATP luminescence, 48 h; reference of the scale not given here | inhibition, % (concentration not given with the values) | 0.17% of 300,000 active | AID 1554;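 active means replicate mean above 50%; inconclusive means above 50% but judged a plate artefact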;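 further: 50 nL library stock added to about 25 µL; numbers are from one replicate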
RN4220 kill: S. aureus RN4220 growth inhibition; OD600, 16 h; inhibition, % (no concentration beside the values); 0.33% of 330,000 active;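 active means z-score of -3 or lower and OD600 up to 0.18 on both plates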;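 further: plate controls were untreated cells for no effect and reference antibiotic for full effect; stock transfer was 100 nL into about 80 µL; one replicate is shown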
Mtb hypoxia inh growth: second read-out of Mtb hypoxia inh, no call of its own (marks repeat the call); growth inhibition, %; measured here: M. tuberculosis growth (absorbance);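 0% = vehicle and 100% = reference antibiotic; read after six days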
Starred values were filed as active, the others as inactive; ? = inconclusive; / = no result given; & = joins results of further samples.

Preview (17 entries):
SMILES	Autofluor counter	Sa ugtP lethal	Mtb hypoxia inh	Mtb hypoxia inh growth	PrP UTR inh	BJeLR viability	RN4220 kill
CC(=O)c1cc(CCC(=O)NC2CCCCCC2)oc1C	4652	1	0	0	-20	-2	4.3
COc1ccc(Br)cc1/C=N/NC(=O)CNC(=O)c1cccnc1	4050	/	/	/	-8	9	/
COc1ccc(C(=O)O)cc1S(=O)(=O)Nc1ccc(N2CCCCC2)cc1	4390	3	15	5	-7	/	4.7
Cc1ccc(NC(=O)C2CCN(S(=O)(=O)c3cccc4nonc34)CC2)cc1	3724	1	1	1	-4	-4	3.9
COc1cc(OC)cc(C(=O)N[C@H](C(=O)Nc2ccccc2N2CCOCC2)C(C)C)c1	9270	9	12	10	-29	10	4.3
COC(=O)c1ccc(CSc2nc3ccccc3[nH]2)o1	3455	9	/	/	-22	6	2.8
CC(=O)Nc1ccc(S(=O)(=O)NCC2CCC(C(=O)N3CCN(c4ccccn4)CC3)CC2)cc1 (centres undefined)	2887	-7	2	4	-11	-2	1.8
CCN(CC)c1ccc(/C=N/NC(=O)c2c[nH]c3ccccc23)cc1	1920	/	/	/	-5	-5	/
O=C(Nc1ccccc1F)C(=O)c1cn(CC(=O)N2CCCCC2)c2ccccc12	4631	1	9	-1	-14	/	0.5
Cc1cc(C)n(CC(=O)N2CCCC(N3CCN(Cc4ccc5c(c4)OCO5)CC3)C2)n1 (centres undefined)	?	-5	-3	-9	-3	5	-4.0
O=C(O)CCc1ccc(-c2cccs2)n1NC(=O)c1ccccc1Br	23254*	-5	-3	9	-4	2	2.0
Cc1ccc(OCC(=O)NNC(=O)c2cc3ccccc3o2)cc1C	7191	9	8	0	-2	-20	5.4
CC(C)(C)OC(=O)NN=Cc1cc(N=Nc2ccccc2)ccc1O	/	0	9	1	/	/	4.7
CCCCC(CC)C(=O)Nc1cc(=O)[nH]c2nc3ccccc3n12 (centres undefined)	3704	-5	-2	5	-19	-13	1.0
NC(=O)COc1ccc2oc(=O)cc(-c3cc4ccccc4o3)c2c1	5623	-2	7	3	-17	8	4.8
COc1cc(C=NNS(=O)(=O)c2ccc(C)cc2)ccc1OCc1ccc(C(=O)O)cc1	/	4	5	-8	/	/	7.2
CCN1CCN(S(=O)(=O)c2cc(OC)ccc2OC)CC1	24223*	3	1	-2	-19	-10	2.5

This part in full, from the start:
SMILES	Autofluor counter	Sa ugtP lethal	Mtb hypoxia inh	Mtb hypoxia inh growth	PrP UTR inh	BJeLR viability	RN4220 kill
CC(=O)c1cc(CCC(=O)NC2CCCCCC2)oc1C	4652	1	0	0	-20	-2	4.3
COc1ccc(Br)cc1/C=N/NC(=O)CNC(=O)c1cccnc1	4050	/	/	/	-8	9	/
COc1ccc(C(=O)O)cc1S(=O)(=O)Nc1ccc(N2CCCCC2)cc1	4390	3	15	5	-7	/	4.7
Cc1ccc(NC(=O)C2CCN(S(=O)(=O)c3cccc4nonc34)CC2)cc1	3724	1	1	1	-4	-4	3.9
COc1cc(OC)cc(C(=O)N[C@H](C(=O)Nc2ccccc2N2CCOCC2)C(C)C)c1	9270	9	12	10	-29	10	4.3
COC(=O)c1ccc(CSc2nc3ccccc3[nH]2)o1	3455	9	/	/	-22	6	2.8
CC(=O)Nc1ccc(S(=O)(=O)NCC2CCC(C(=O)N3CCN(c4ccccn4)CC3)CC2)cc1 (centres undefined)	2887	-7	2	4	-11	-2	1.8
CCN(CC)c1ccc(/C=N/NC(=O)c2c[nH]c3ccccc23)cc1	1920	/	/	/	-5	-5	/
O=C(Nc1ccccc1F)C(=O)c1cn(CC(=O)N2CCCCC2)c2ccccc12	4631	1	9	-1	-14	/	0.5
Cc1cc(C)n(CC(=O)N2CCCC(N3CCN(Cc4ccc5c(c4)OCO5)CC3)C2)n1 (centres undefined)	?	-5	-3	-9	-3	5	-4.0
O=C(O)CCc1ccc(-c2cccs2)n1NC(=O)c1ccccc1Br	23254*	-5	-3	9	-4	2	2.0
Cc1ccc(OCC(=O)NNC(=O)c2cc3ccccc3o2)cc1C	7191	9	8	0	-2	-20	5.4
CC(C)(C)OC(=O)NN=Cc1cc(N=Nc2ccccc2)ccc1O	/	0	9	1	/	/	4.7
CCCCC(CC)C(=O)Nc1cc(=O)[nH]c2nc3ccccc3n12 (centres undefined)	3704	-5	-2	5	-19	-13	1.0
NC(=O)COc1ccc2oc(=O)cc(-c3cc4ccccc4o3)c2c1	5623	-2	7	3	-17	8	4.8
COc1cc(C=NNS(=O)(=O)c2ccc(C)cc2)ccc1OCc1ccc(C(=O)O)cc1	/	4	5	-8	/	/	7.2
CCN1CCN(S(=O)(=O)c2cc(OC)ccc2OC)CC1	24223*	3	1	-2	-19	-10	2.5
Cc1n[nH]c(=O)c2c(NC(=O)CSc3nnnn3-c3ccc(O)cc3)oc(C)c12	/	2	7	0	-11	-5	2.4
CCCN1CCC(=O)N(C(CSc2ccc(OC)cc2)CC(C)C)CC1 (centres undefined)	/	-1	2	17	/	/	6.0
Cc1ccc(S(=O)(=O)Cc2ccc(C(=O)NCCc3ccccc3)o2)cc1	5000	9	8	3	-21	0	2.5
Cc1ccc(-n2c(O)c(C=NCCCn3ccnc3)c(=O)[nH]c2=O)cc1	5514	9	12	7	-12	7	2.2
CCn1c(-c2nonc2NC(=O)c2ccccc2)nc2ccccc21	20786*	-8	-16	5	-20	3	-1.3
NC(N)=NC(N)=Nc1cccc(Cl)c1	5287	0	0	3	-8	-1	2.1
Cc1ccc(S(=O)(=O)NCC(=O)OCc2cc(=O)oc3c(C)c(C)ccc23)cc1C	3753	5	7	-3	-8	/	3.8
CN(C)CC/C=C1/c2ccccc2Sc2c(O)cc(Cl)cc21	2517	-7	/	/	-22	-5	-1.2
N#Cc1cccc(C(=O)Nc2cc(S(=O)(=O)N3CCOCC3)ccc2N2CCCC2)c1	2805	0	-2	1	-11	/	-0.3
Cc1ccc2c(c1)N(Cc1cccc(C#N)c1)C=NS2(=O)=O	3512	5	-7	-7	-9	7	-1.3
C[C@@H]1CN([C@H](C)CO)C(=O)c2cc(NC(=O)Nc3ccc(C(F)(F)F)cc3)ccc2O[C@H]1CN(C)S(=O)(=O)c1ccccc1	4243	-25	-10	1	-3	/	6.9
CCc1ccc(N(CC(=O)NC(C)(C)C)C(=O)CNC(=O)c2cccs2)cc1	3469	14	6	6	-17	-20	4.8
CN(C)C(=O)Oc1cccc(-c2cn3cc(Cl)ccc3n2)c1	6597	9	-1	7	-45	1	4.3
CCOc1ccc(NS(=O)(=O)c2ccc(OCC(=O)NCc3ccncc3)cc2)cc1	?	0	-1	1	-6	5	-0.4
CCOc1ccccc1/C=C(/C#N)C(N)=O	2908	/	/	/	-11	-2	/
CN(C)C(=O)CSc1nnc(Cc2ccc([N+](=O)[O-])cc2)o1	8154	4	1	10	-8	15	4.3
Cc1ccccc1NC(=O)C(C)c1cccc(C(=O)c2ccccc2)c1 (centres undefined)	10580	1	2	11	-25	-6	6.9
CC(Oc1ccc(F)cc1)C(=O)Nc1cc(S(=O)(=O)N2CCCCC2)ccc1N1CCN(C)CC1 (centres undefined)	3722	2	0	10	-14	/	4.6
CCC(Oc1ccccc1)C(=O)Nc1ccc(S(=O)(=O)Nc2cnc3ccccc3n2)cc1 (centres undefined)	3118	-4	12	7	-13	-4	5.7
Cc1ccc(-c2nc(N/N=C/c3cccc([N+](=O)[O-])c3)c3ccccc3n2)cc1	14049	/	/	/	-56	0	/
N#Cc1cccc(NC(=O)COC(=O)C2CCC2)c1	/	4	-4	-4	-28	-9	2.5
O=[N+]([O-])c1ccc(N2CCNCC2)cc1NCC1CCCO1 (centres undefined)	5476	-2	-1	-6	-13	3	-1.7
Cc1nc(N2CCN(C(=O)c3cccs3)CC2)c2c3c(sc2n1)CCCC3	2992	63	7	4	-7	-1	3.0
COC(=O)c1sccc1NC(=O)c1ccoc1C	9379	6	4	4	-28	-9	13
CC1(c2ccccc2)C(C#N)C(=O)NC(=O)C1C#N (centres undefined)	3804	-5	2	2	-1	/	-1.6
COC(=O)c1sc(NC(=O)c2ccncc2)nc1C	4198	11	10	14	-22	7	1.7
O=C(CN1C(=O)CSc2cc(S(=O)(=O)N3CCCCCC3)ccc21)NCCc1ccccc1	11076	-17	-2	-2	-29	8	4.2
CCOC1OC(C(=O)NC2CC2)=CC(C2CCCCC2)C1CCCO (centres undefined)	/	-14&-7	-6&-6	0&-8	/	/	0.1&-0.6
CCOc1ccc(N=C2NC(=O)SC2CC(=O)OC)cc1 (centres undefined)	6095	4	7	4	-7	-9	0.9
CC(C)CNS(=O)(=O)c1ccc(CCC(=O)N2CCN(Cc3ccccc3)CC2)cc1	2623	2	/	/	-10	13	2.0
CCOC(=O)C1CCCN(C(=O)c2cc(S(=O)(=O)N3CCCCC3)ccc2C)C1 (centres undefined)	4294	-3	0	4	-14	-7	4.3
COc1ccc(C(=O)NC(=S)NCc2cccnc2)cc1OC	2166	9	0	7	-27	7	5.0
COc1cc(NC(=O)CCc2nnc3ccc(N4CCC5(CC4)OCCO5)nn23)cc(OC)c1	4355	-3	-10	-24	-4	8	-5.6
C/C(=N\NS(=O)(=O)c1ccccc1)c1cccc(NC(=O)c2cccc(Cl)c2)c1	2531	/	/	/	-18	-11	/
COc1ccc(C=NN(Cc2ccccc2)c2ccccc2)cc1O	/	-7	10	8	/	/	52
CC1(C#N)c2ccccc2C(Br)=CN1C(=O)c1ccccc1 (centres undefined)	3159	-5	10	15	-5	0	-4.3
CCOc1ccc(-c2n[nH]c(C)c2Oc2ccccc2OC)c(O)c1	6889	-8	-1	0	-5	-2	2.0
CC(=O)c1ccc(NC(=O)C2CCN(S(=O)(=O)c3cccc4nonc34)CC2)cc1	3495	7	3	6	-19	-2	1.0
C/C=C\C=C/C(=O)Nc1cccc(C2=NOC3(C2)C[C@H](C(N)=O)N(C(=O)c2ccc(OC)cc2)C3)c1 (some centres undefined)	4146	/	/	/	-24	3	/
CCCCSc1nnc(-c2ccccc2N)c(=O)[nH]1	10110	-8	4	2	-65	0	18
CCOc1ccc(NC(=O)CN2CCN(C3c4ccccc4-c4ccccc43)CC2)cc1	8568	8	7	10	-23	2	-3.5
COc1ccc(Nc2oc(-c3ccc(Cl)cc3)nc2C#N)cc1	4099	-7	3	2	-120	15	-5.3
CC1(C)CC(CC(=O)Nc2nccs2)(c2ccccc2)CCO1 (centres undefined)	9024	/	/	/	6	-5	/

(continued)
SMILES	Autofluor counter	Sa ugtP lethal	Mtb hypoxia inh	Mtb hypoxia inh growth	PrP UTR inh	BJeLR viability	RN4220 kill
CCCCn1c(N)c(N(CCC)C(=O)C2CCCC2)c(=O)[nH]c1=O	7713	2	8	1	-12	/	2.2
O=C(C1CCC1)N1CCN(S(=O)(=O)c2ccccc2)CC1	4319	-7	-4	5	16	1	-3.6
O=C(Oc1ccc2ccccc2c1)C1CCC1	3990	/	/	/	-26	-1	/
O=S(=O)(Nc1ccc2c(c1)OCCO2)c1cccs1	9144	2	9	12	-11	-6	2.4
CCC1CCCCN1CCCNC(=O)C1CCN(c2ncnc3c2nc2n3CCCCC2)CC1 (centres undefined)	6127	6	4	9	-7	5	0.8
COc1ccc(NC(=O)Nc2c(O)ccc3ccccc23)cc1	4538	0	6	4	-34	-5	0.4
O=C1CN(S(=O)(=O)c2cccc(C(=O)O)c2)c2ccccc2N1	3153	0	-9	-4	-10	-2	-0.2
Clc1ccc(C2CC(c3cccs3)n3ncnc3N2)cc1 (centres undefined)	/	7	15	-1	/	5	5.2
N#C/C=C(/N)N1CCN(c2ccc(Cl)c(Cl)c2)CC1	3997	-11	/	/	-16	12	-1.7

Source: PubChem BioAssay
